AF4-AF9 inh = MLL-AF4/AF9 protein interaction inhibition. P42568. 0.47% of 350,000 active. inhibition, % at 10 µM. AlphaScreen, biotin-AF4 peptide binding to FLAG-AF9. AID 651704;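 active = every replicate reaching a set inhibition limit, whatever the replicate mean, cut at about 25% in these data; inconclusive = mean inhibition reaches that limit but some replicates miss it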;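 also: 0% = plate neutral control median and 100% = total signal loss; the record names both 10 and 1 µM as test concentration; the first replicate is given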
Target sequence (P42568 whole entry, looked up): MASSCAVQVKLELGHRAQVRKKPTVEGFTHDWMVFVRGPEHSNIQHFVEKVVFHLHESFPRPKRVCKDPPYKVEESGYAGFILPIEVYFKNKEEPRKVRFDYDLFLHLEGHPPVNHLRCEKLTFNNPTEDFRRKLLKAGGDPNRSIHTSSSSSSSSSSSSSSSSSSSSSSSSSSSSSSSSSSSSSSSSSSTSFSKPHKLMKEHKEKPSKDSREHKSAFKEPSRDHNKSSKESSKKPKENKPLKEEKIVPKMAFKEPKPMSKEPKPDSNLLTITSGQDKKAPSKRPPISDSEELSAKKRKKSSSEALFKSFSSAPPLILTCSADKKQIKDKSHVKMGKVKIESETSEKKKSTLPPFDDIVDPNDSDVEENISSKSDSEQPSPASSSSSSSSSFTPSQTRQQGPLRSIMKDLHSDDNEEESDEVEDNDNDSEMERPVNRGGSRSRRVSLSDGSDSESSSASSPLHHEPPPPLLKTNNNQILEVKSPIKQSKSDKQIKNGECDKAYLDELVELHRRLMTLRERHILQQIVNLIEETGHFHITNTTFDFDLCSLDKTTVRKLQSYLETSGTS
FGF22 binding = shifts melting point of recombinant human FGF22 | Q9HCT0 | recombinant FGF22 thermal shift, SYPRO orange fluorescence; percent of sucrose octasulfate shift, DMSO zero | calls only at 9.99 µM | 1.5% of 340,000 active;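 active = melting point raised past a set limit in the mean and every replicate; inconclusive = no clear call; three in four hits are not shown here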
Target sequence (Q9HCT0 whole entry, looked up): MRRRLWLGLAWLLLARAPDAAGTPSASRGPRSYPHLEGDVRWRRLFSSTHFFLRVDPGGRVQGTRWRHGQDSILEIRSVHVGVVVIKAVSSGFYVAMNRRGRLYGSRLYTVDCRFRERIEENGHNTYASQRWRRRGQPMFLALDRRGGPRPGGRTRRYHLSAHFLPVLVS
RanGTP-Impb inh = disruptors of Ran-importin-beta complex formation – biochemical, FRET, CFP-Ran, YFP-importin-beta, homogeneous, primary screen. cell-free CFP-Ran/YFP-importin-beta FRET ratio. AID 2216. inhibition, % (no concentration beside the values). 1.1% of 300,000 active;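 active = most replicates above 15%; inconclusive = exactly half above 15%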;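 also: 0% = DMSO wells and 100% = Ran loaded with GDP instead of GTP; wells of about 40 µL received 100 nL stock; the first replicate is given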
UCH37 DUB inh = blocks the human deubiquitinase UCH37; Q9Y5K5; 0.33% of 330,000 active; AID 588478; purified proteasome/UCH37, Ub-AMC cleavage fluorescence; inhibition, % (concentration not given with the values);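 active = mean of two replicates above 20%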;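 also: 0% = compound-free wells with enzyme and 100% = wells lacking proteasome; stock transfer was 100 nL into about 20 µL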
Target sequence (Q9Y5K5 whole entry, looked up): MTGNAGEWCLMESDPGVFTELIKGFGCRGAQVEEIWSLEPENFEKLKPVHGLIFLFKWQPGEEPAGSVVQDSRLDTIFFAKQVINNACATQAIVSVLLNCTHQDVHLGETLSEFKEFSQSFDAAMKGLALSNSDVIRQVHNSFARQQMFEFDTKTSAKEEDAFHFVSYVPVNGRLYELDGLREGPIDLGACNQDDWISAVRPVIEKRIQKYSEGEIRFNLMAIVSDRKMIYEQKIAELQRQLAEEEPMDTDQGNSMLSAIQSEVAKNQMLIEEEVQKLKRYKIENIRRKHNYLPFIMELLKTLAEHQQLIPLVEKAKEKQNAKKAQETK
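assay system = human UCH37 enzyme supplied as purified proteasome complex | amount = proteasome at 0.15 nM in the dispensed enzyme solution | schedule = 30 min compound-proteasome preincubation then 25 min substrate reaction, room temperature | measured by = fluorescence, ex 355 nm, em 460 nm | benchmarks = no-proteasome wells (full inhibition) and compound-free wells (no inhibition)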
Vif A3G = inhibitors of Vif binding to APOBEC3G peptide, primary screen, biochemical, TR-FRET, GST-Vif 1-94, biotin-A3G peptide, dose response retest (AID 1117319); TR-FRET GST-Vif / biotin-A3G peptide binding; higher % means a stronger effect; test concentration not given here; strong numbers were not always called active; inhibition, %; hits with a dose series show IC50 in µM; 0.57% of 260,000 active;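 active = above the screen mean plus three standard deviations and confirmed in dose response; inconclusive = results disagree or hit not tested in dose response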;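 also: Vif residues 1-94 fused to GST binding biotinylated APOBEC3G peptide 110-148; 0% = full assay without inhibitor and 100% = GST in place of GST-Vif; retest series ran down from 100 µM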
E coli growth = inhibitors of Escherichia coli growth; OD600 absorbance (concentration not given with the values); 0.21% of 330,000 active; AID 1053175; OD600, 23 h; hits give low values;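 active = OD600 absorbance below the run mean of sample wells minus 3.6 SD, in any replicate, cut at about 0.56 in these data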;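 also: stock transfer was 300 nL into about 60 µL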
HNF4A DNA FP = change in binding of human HNF4 alpha to DNA; HNF4a-FITC DNA binding, fluorescence polarization, 1 h; activity change, % at 10 µM; 0.3% of 360,000 active; AID 1224865; in the data active = activity change above about 30%, passing the limit was not always enough;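 also: controls were the assay level and a saturating level of protein; the project sought stronger binding though the title names inhibitors; some compounds called inactive have numbers as strong as hits; positive values seem to mean higher polarization but the record does not say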
* = called active by the depositor; i = inactive; ? = inconclusive; . = no result given. The list is partial; rates above refer to the full screens.

SMILES | AF4-AF9 inh | FGF22 binding | RanGTP-Impb inh | UCH37 DUB inh | Vif A3G | E coli growth | HNF4A DNA FP
CCN(c1ccc(OC)cc1)S(=O)(=O)c1ccc2c(c1)NC(=O)CS2 | -14.1 | i | -3.7 | 5.3 | -1.8% | 0.71 | -4.8
CCn1c(SCC(=O)O)nnc1-c1cccnc1 | 0.3 | i | -5.7 | 4.8 | 1.8% | 0.681 | 1.4
CC1=NN2C(=N)/C(=C\c3cc(C)n(-c4ccccc4)c3C)C(=O)N=C2S1 | -0.6 | i | 39.4* | -65.0 | -8.6% | 0.685 | 10.0
CCOc1cc(S(=O)(=O)NCc2ccc(OC)cc2)c(OCC)cc1-n1cnnn1 | . | . | . | -12.8 | ? | 0.692 | 2.4
Cc1ccc(N(C(=O)c2snc(C(N)=O)c2N)C(C(=O)NCC2CCCO2)c2ccc3ncccc3c2)cc1 (stereo unspecified) | 8.8 | i | -1.1 | -64.7 | -9.7% | 0.658 | 3.9
CCOC(=O)C1CCCCN1Cc1ccc(OC)c(OC)c1OC (stereo unspecified) | . | . | 4.2 | 7.2 | -7.3% | 0.671 | -2.2
COc1cccc(/C(O)=C2/C(=O)C(=O)N(Cc3cccnc3)C2c2ccco2)c1 (stereo unspecified) | . | . | 0.2 | 11.0 | 10.8% | 0.72 | -2.3
O=c1/c(=C/c2ccccn2)sc2n1CN(c1ccccc1)CN=2 | . | . | 0.7 | . | 6.8% | . | 18.1
COc1cc(SC)ccc1C(=O)OCC(=O)NCC(C)C | -0.2 | i | 1.2 | 2.2 | 4.7% | 0.679 | -2.7
Cc1cc(C)c(C)c(OCCNCc2ccccc2)c1 | 0.2 | i | ? | 2.6 | -6.8% | 0.595 | 2.3
O=C(CCn1c(=O)[nH]c2ccccc2c1=O)Nc1ccccc1 | . | . | ? | 3.1 | 4.5% | 0.642 | -0.8
O=C(CN(C(=O)CSc1nnc(COc2ccccc2)o1)c1ccc(F)cc1)NC1CCCC1 | . | . | 3.3 | 3.0 | ? | 0.7 | -0.7
CN(C)/C=C/C(=O)c1ccc([N+](=O)[O-])c(CS(=O)(=O)c2ccc(Cl)cc2)c1 | 1.6 | i | 2.2 | 11.0 | -2.6% | 0.68 | -3.2
COc1ccccc1Nc1nc(N)nc(CSc2nccn2C)n1 | -1.0 | i | 2.7 | 2.0 | . | 0.68 | 3.3
COc1ccccc1NC(=O)NNC(=O)COc1ccc2ccccc2c1 | -2.9 | i | -0.3 | 1.8 | -13.4% | 0.707 | 0.7
NC(=O)c1ccc2nc(-c3ccccc3)c(-c3ccccc3)nc2c1 | 1.6 | i | 0.7 | -76.7 | -6.3% | 0.637 | 1.5
CC(=O)C1CCC2C3CC(C)C4(O)CC(=O)CCC4(C)C3C(O)CC12C (stereo unspecified) | 0.4 | i | . | -0.6 | 6.6% | 0.668 | -3.3
N#Cc1ccc(NC(=O)CN2C(=O)NC(Cc3ccccc3)C2=O)cc1 (stereo unspecified) | . | . | -0.4 | -1.1 | 18.6% | 0.714 | -3.0
Cc1ccc(S(=O)(=O)N2CCOCC2)cc1NC(=O)COc1ccc(-c2nnco2)cc1 | -1.8 | i | ? | 3.9 | ? | 0.701 | 1.8
CCc1cccc(N=c2c([N+](=O)[O-])nn(-c3ccc(Cl)cc3)n2O)c1 | 7.3 | i | -3.2 | 3.3 | -2.3% | 0.71 | 0.3
O=C(CCCOc1ccccc1)Nc1cc(S(=O)(=O)N2CCOCC2)ccc1N1CCOCC1 | 2.0 | i | . | 6.4 | -0.6% | 0.717 | 0.3
O=C(O)[C@@H]1CCCN1C(=O)CCc1c[nH]c2ccccc12 | -2.1 | i | -1.4 | 5.7 | 0.8% | 0.669 | 0.4
O=c1[nH]c(SCc2ccccc2Cl)nc2c1CCC2 | . | . | 4.3 | 5.5 | 0.1% | 0.666 | 2.4
O=C(Nc1ccccc1OC(F)F)c1ccccc1 | . | . | 7.8 | 1.5 | -2.4% | 0.64 | -3.1
Cc1sc2ncnc(NC3CCN(Cc4ccccc4)CC3)c2c1C | 2.2 | i | 3.6 | -0.3 | 0.3% | 0.694 | -0.2
Going on with the list:
SMILES | AF4-AF9 inh | FGF22 binding | RanGTP-Impb inh | UCH37 DUB inh | Vif A3G | E coli growth | HNF4A DNA FP
c1ccc(CCC2CCCCN2Cc2nc(C3CC3)no2)cc1 (stereo unspecified) | 0.2 | i | -3.1 | 1.8 | -3.2% | 0.723 | -1.8
COC(=O)CN1C(=O)N/C(=C/c2ccccc2OC)C1=O | -0.3 | i | ? | 2.4 | 1.5% | 0.704 | 0.2
O=C(c1ccccc1)c1ncc(C(F)(F)F)cc1Cl | . | . | 1.7 | 0.3 | 2.8% | 0.665 | -0.6
COc1ccc2nc3cc(Cl)ccc3c(C#N)c2c1 | -0.1 | i | 51.3* | -13.1 | -2.1% | 0.679 | -14.7
CNC(=O)c1c(NC(=O)c2ccc(S(=O)(=O)N3CCCCC3)cc2)sc2c1CCN(C(C)C)C2 | 4.4 | i | 93.3* | 5.1 | -20.2% | 0.684 | 13.7
O=c1nc(-c2ccccc2)n(-c2ccccc2)[nH]1 | . | . | -1.6 | -0.5 | -15.5% | 0.701 | 2.2
Cc1[nH]n(C(N)=S)c(=O)c1N=Nc1ccc(S(=O)(=O)N2CCCCCC2)cc1 | . | . | -1.5 | 15.2 | 0.5% | 0.686 | -1.3
COc1cc(NC(=O)COc2ccc(C)c(C)c2)ccc1NC(=O)c1ccco1 | -6.0 | i | 0.9 | -45.5 | . | 0.691 | 1.6
Cc1ccc(S(=O)(=O)N2[C@@H](c3ccc(C(C)(C)C)cc3)C(C(=O)O)=CC[C@H]2c2ccc(Cl)c(Cl)c2)cc1 | -2.4 | i | . | 11.6 | . | 0.666 | -12.9
COc1ccccc1NS(=O)(=O)c1cc(NC(=O)CCC2CCCC2)ccc1N1CCOCC1 | 3.7 | i | 1.6 | 1.7 | 22.1% | 0.706 | 1.2
C=C(C)CN(Cc1ccccc1)C(=S)Nc1ccccc1 | -1.7 | i | 0.7 | 6.9 | . | 0.706 | 2.2
O=C(Cn1c(=O)oc2cc(S(=O)(=O)N3CCCC3)ccc21)Nc1ccccn1 | -5.2 | i | . | . | . | . | 1.3
CC1=C(C(=O)OCc2ccccc2)C(c2ccc(Cl)cc2Cl)NC(=O)N1CCCCCC(=O)O (stereo unspecified) | . | . | 0.8 | 3.9 | . | 0.684 | .
O=C(CCN1CCCO1)NC1CCCc2c1cnn2-c1ccccc1F (stereo unspecified) | -6.5 | i | 22.1 | -0.2 | . | 0.659 | 1.1
CC(C)N1CCC(N2CCN(Cc3ccc(-c4ccc(Cl)cc4)o3)CC2CCO)CC1 (stereo unspecified) | 3.3 | i | -4.2 | 1.5 | . | 0.743 | 3.5
O=C(O)c1ccc(/C=N/Nc2ncc(C(F)(F)F)cc2Cl)cc1 | -2.8 | i | 2.4 | . | 1.9% | . | 1.1
CC(=O)c1cccc(CN2CCC(C(=O)Nc3ccc(Oc4cccnc4)cc3)CC2)c1 | 1.9 | i | -0.9 | 2.7 | -4.9% | 0.707 | 5.6
CNCCCCOc1ccc(C(C)(C)C)cc1Cl | 1.5 | i | -4.8 | 2.7 | -2.6% | 0.655 | -0.7
COc1ccccc1NC(=O)CN(Cc1ccco1)C(=O)c1cc2ccccc2o1 | . | . | -2.9 | 4.1 | -1.8% | 0.538* | -1.9
CCN(CC)C(=O)c1cccc(-c2csc(C(C)(O)c3ccc(OC)cc3)n2)c1 (stereo unspecified) | 2.5 | i | . | . | . | . | -0.4
C=CCn1c(SCC(=O)NC2CCS(=O)(=O)C2)nc2scc(C3CC3)c2c1=O (stereo unspecified) | . | . | 3.0 | 4.0 | -6.2% | 0.705 | 5.6
CCCCNCCOCCOc1ccc(F)cc1 | . | . | 0.2 | -1.8 | -0.8% | 0.656 | -0.6
O=C(c1ccco1)n1nc(-c2ccccc2)nc1SCc1ccccc1 | . | . | -2.6 | 4.8 | ? | 0.71 | 3.6
O=C(CCN1C(=O)COc2ccccc21)NCCN1CCOCC1 | 2.0 | i | 0.6 | 3.2 | 3.9% | 0.676 | 0.8
CCOC(=O)C(NC=O)(NC(C)(C)C)C(=O)OCC | . | . | 5.8 | 5.9 | -5.5% | 0.801 | 1.8

The list goes on, overlapping the part above by 2 compounds.
SMILES | AF4-AF9 inh | FGF22 binding | RanGTP-Impb inh | UCH37 DUB inh | Vif A3G | E coli growth | HNF4A DNA FP
O=C(CCN1C(=O)COc2ccccc21)NCCN1CCOCC1 | 2.0 | i | 0.6 | 3.2 | 3.9% | 0.676 | 0.8
CCOC(=O)C(NC=O)(NC(C)(C)C)C(=O)OCC | . | . | 5.8 | 5.9 | -5.5% | 0.801 | 1.8
COc1ccccc1N(CC(=O)Nc1cc(S(=O)(=O)N(C)C)ccc1C)S(=O)(=O)c1cccs1 | -1.1 | i | . | 1.7 | -9.7% | 0.669 | 3.4
CCc1nnc(N/N=C/c2cc(C)c(C)cc2C)n1N | -6.4 | i | -2.3 | . | . | . | 1.1
COc1ccnc(Nc2cccc(C)c2)c1C#N | -3.3 | i | -0.3 | 0.5 | 3.2% | 0.702 | -3.0
CCn1c(CS(=O)Cc2ccc(Cl)cc2Cl)nnc1SCc1c(Cl)cccc1Cl (stereo unspecified) | 4.5 | i | -0.1 | 0.4 | -0.6% | 0.75 | 2.1
Cc1ccc(Cn2cc(C(=O)c3ccc(F)cc3)c(=O)c3cc4c(cc32)OCCO4)cc1 | 0.7 | . | -3.1 | -4.4 | -23.3% | 0.704 | -3.7
CCN1C(=O)C(O)(CC(=O)c2c(C)coc2C)c2ccccc21 (stereo unspecified) | -2.0 | i | -1.1 | 3.2 | -0.8% | 0.657 | 4.0
Clc1cc2cccnc2c2ccccc12 | . | . | -0.4 | -21.8 | -5.8% | 0.678 | -0.7
CN1CC(=O)N(CC(=O)NCc2ccc3c(c2)OCO3)C1=O | . | . | 1.4 | -0.8 | -6.2% | 0.739 | 0.9
Cc1ccc2[nH]c(=O)c3cc(C(=O)N(C)c4ccc(C)c(C)c4)sc3c2c1 | 1.5 | i | 2.1 | -1.7 | . | 0.718 | 1.5
CC(=O)C1=CCC(c2ccc(C(C)C)cc2)N(S(=O)(=O)c2ccc(C)cc2)C1 (stereo unspecified) | -1.7 | i | . | . | . | . | -2.0
COc1ccc(C2NC(=O)NC(C)=C2C(=O)OC2CCCCC2)cc1OC (stereo unspecified) | 1.6 | i | -1.7 | -1.1 | 2.0% | 0.691 | 3.7
Nc1ccc(-c2nc3ccc(-c4nc5ccccc5o4)cc3[nH]2)cc1 | . | . | -2.4 | -306.0 | -6.5% | 0.753 | -0.8
O=C(c1ccccc1)C1CCc2occc2C1=O (stereo unspecified) | . | . | 0.8 | 2.1 | 15.1% | 0.701 | 1.0
COc1cccc(CN2CC(C(=O)N3CCCO3)CCC2=O)c1 (stereo unspecified) | 1.5 | i | 2.5 | 4.8 | . | 0.7 | -2.9
FC(F)(F)c1ccccc1Cc1c(-c2ccco2)nc2ccc(Br)cn12 | -2.7 | i | . | . | . | . | 14.1
C[C@@]12CC(=O)NC1N(C(=O)c1ccccc1)C(c1ccccc1OC(=O)c1ccccc1)C2 (stereo partly specified) | . | . | -4.1 | -0.2 | -0.2% | 0.719 | 36.4*
CCN(CC)c1ccc(NC(=O)c2cc(Cl)ccc2OC)cc1 | . | . | 5.3 | 0.6 | 4.3% | 0.727 | 3.5

Some values from the list.
CCn1c(CS(=O)Cc2ccc(Cl)cc2Cl)nnc1SCc1c(Cl)cccc1Cl (stereo unspecified) in UCH37 DUB inh reads 0.4
O=C(Nc1ccccc1OC(F)F)c1ccccc1 in E coli growth reads 0.64
Cc1ccc(S(=O)(=O)N2CCOCC2)cc1NC(=O)COc1ccc(-c2nnco2)cc1 in HNF4A DNA FP reads 1.8
Clc1cc2cccnc2c2ccccc12 in UCH37 DUB inh reads -21.8
